High-throughput results as filed in PubChem BioAssay.
HNF4A DNA FP: change in binding of human HNF4 alpha to DNA; 0.3% of 360,000 active; HNF4a-FITC DNA binding, fluorescence polarization, 1 h; AID 1224865; P41235; activity change, % at 10 µM; in the data active = activity change above about 30%, passing the limit was not always enough;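 note: controls were the assay level and a saturating level of protein; the project sought stronger binding though the title names inhibitors; some compounds called inactive have numbers as strong as hits; positive values seem to mean higher polarization but the record does not say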
Target sequence (P41235 whole entry, looked up): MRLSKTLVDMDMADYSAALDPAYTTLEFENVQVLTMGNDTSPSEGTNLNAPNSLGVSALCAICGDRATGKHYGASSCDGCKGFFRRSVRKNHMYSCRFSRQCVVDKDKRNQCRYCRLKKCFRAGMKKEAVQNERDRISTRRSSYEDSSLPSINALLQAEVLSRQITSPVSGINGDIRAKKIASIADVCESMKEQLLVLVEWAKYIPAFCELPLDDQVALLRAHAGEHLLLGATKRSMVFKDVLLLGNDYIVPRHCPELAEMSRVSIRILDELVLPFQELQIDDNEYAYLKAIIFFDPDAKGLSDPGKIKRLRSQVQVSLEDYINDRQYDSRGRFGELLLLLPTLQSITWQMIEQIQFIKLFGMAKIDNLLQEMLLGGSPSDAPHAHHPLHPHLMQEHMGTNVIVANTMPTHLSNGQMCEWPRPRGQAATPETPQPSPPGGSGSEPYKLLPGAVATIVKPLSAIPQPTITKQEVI
B2AR ag: activates human beta-2 adrenergic receptor causing internalization; Am2.2-beta2AR cells, FAP receptor internalization, flow cytometry; reference of the scale not given here; response, % (no concentration beside the values); 0.43% of 340,000 active;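 active = response above a set limit, near 3 SD of response in nonfluorescent compounds, cut at about 42% in these data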;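 note: stock transfer was 100 nL into about 11 µL; a reference agonist was the positive control; negative values mostly stem from fluorescent compounds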
Target sequence (P07550 whole entry, looked up): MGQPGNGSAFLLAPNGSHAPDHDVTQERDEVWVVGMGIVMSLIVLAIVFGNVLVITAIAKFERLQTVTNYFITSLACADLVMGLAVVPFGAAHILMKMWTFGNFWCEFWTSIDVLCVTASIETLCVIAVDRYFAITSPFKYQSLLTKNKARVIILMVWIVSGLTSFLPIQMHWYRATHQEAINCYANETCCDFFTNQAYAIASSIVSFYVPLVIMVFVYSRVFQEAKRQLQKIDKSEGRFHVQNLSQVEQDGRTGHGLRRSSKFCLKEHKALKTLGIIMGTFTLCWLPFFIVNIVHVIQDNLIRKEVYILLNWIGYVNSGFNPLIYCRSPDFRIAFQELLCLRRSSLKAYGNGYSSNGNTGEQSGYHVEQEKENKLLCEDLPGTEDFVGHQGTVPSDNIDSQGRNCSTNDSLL
E coli growth: E. coli growth inhibition; AID 1053175; Escherichia coli growth, OD600, 23 h; active compounds read low; OD600 absorbance (no concentration beside the values); 0.21% of 330,000 active;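 active = OD600 absorbance below the run mean of sample wells minus 3.6 SD, in any replicate, cut at about 0.56 in these data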;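 note: stock transfer was 300 nL into about 60 µL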
UCH37 inh: human UCH37 deubiquitinating enzyme inhibition; Q9Y5K5; 0.33% of 330,000 active; purified proteasome/UCH37, Ub-AMC cleavage fluorescence; inhibition, % (test concentration not listed);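 active = mean of two replicates above 20%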;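 note: 0% = compound-free wells with enzyme and 100% = wells lacking proteasome; stock transfer was 100 nL into about 20 µL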
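Material: Human UCH37 enzyme supplied as purified proteasome complex | Schedule: 30 min compound-proteasome preincubation then 25 min substrate reaction, room temperature | Detection: AMC fluorescence from Ub-AMC cleavage, excitation 355 nm, emission 460 nm | Benchmarks: Wells without proteasome as full block, compound-free enzyme plus substrate as uninhibited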
FGF22 binding: binders of recombinant human FGF22 by thermal shift. 1.5% of 340,000 active. SYPRO orange fluorescence; percent of sucrose octasulfate shift, DMSO zero. Q9HCT0. calls only at 9.99 µM;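 active = melting point raised past a set limit in the mean and every replicate; three in four hits are not shown here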
LANA-H2B inh: blocks KSHV LANA binding to histone H2A/H2B; Q9QR71; cell-free LANA-H2A/H2B peptide, fluorescence polarization; inhibition, % (concentration not given with the values); 0.6% of 320,000 active; in the data active = inhibition mostly above about 10%, no sharp cut-off; inactive = mostly below about 6.7%;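 note: stock transfer was 7.5 nL into about 10 µL; 0% = median of vehicle wells and 100% = median of positive control wells; one replicate is shown; the record names a cut of 25% in any replicate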
ALR inh: human ALR oxidase inhibition via reduced H2O2; purified ALR, DTT oxidation, H2O2 HRP-luminol luminescence; AID 485317; 3.8% of 290,000 active; inhibition, % (no concentration beside the values); P55789;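 active = mean and each replicate at 75% or more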;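 note: stock transfer was 7.5 nL into about 7.5 µL; 0% = neutral wells and 100% = wells with inactivated enzyme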
Target sequence (P55789 whole entry, looked up): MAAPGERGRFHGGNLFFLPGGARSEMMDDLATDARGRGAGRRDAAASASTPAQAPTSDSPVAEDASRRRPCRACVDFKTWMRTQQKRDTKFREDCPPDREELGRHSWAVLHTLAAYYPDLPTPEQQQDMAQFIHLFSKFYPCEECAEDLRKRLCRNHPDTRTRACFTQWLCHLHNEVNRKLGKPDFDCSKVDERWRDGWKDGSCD
Active calls of the source: *; i = inactive; x = no result given. These rows are one share of the data (hit frequency here may not be typical).

Each structure is followed by: E coli growth, HNF4A DNA FP, B2AR ag, LANA-H2B inh, UCH37 inh, ALR inh, FGF22 binding
C=C1CCN([C@@H](CC(C)C)C(=O)NCc2ccc(OC)cc2)S(=O)(=O)c2ccccc21
    x, 1.0, -4, 1.0, -4.2, -12, i
O=C1CC(Cc2ccc(Cl)cc2)C(=O)N1c1ccncc1 (centres undefined)
    0.76, -3.4, 1, 3.2, -1.8, -2, x
COc1ccc(-c2nn(-c3ccccc3)cc2C(=O)N2CCN(S(=O)(=O)c3ccccc3C#N)CC2)cc1
    0.72, 5.1, 0, -0.8, 0.4, -3, i
CCOc1ccc(NS(=O)(=O)c2cc(C(=O)N3CCN(c4ccccc4O)CC3)ccc2Cl)cc1
    0.67, -5.0, 6, x, 5.0, x, i
Cc1ccc2c(CN(C)Cc3ccc(Cl)cc3Cl)cc(=O)oc2c1
    0.72, 2.8, -1, -5.6, 4.2, 3, i
Nc1cc(S(=O)(=O)c2ccc(O)c(N)c2)ccc1O
    0.7, 2.2, 1, -2.5, 0.1, x, i
O=C(O)C1C2C=CC(C2)C1C(=O)OC1CC2CCC1C2 (centres undefined)
    0.69, 1.6, 8, 9.0, 2.1, -4, x
CN1C(=O)[C@H]2[C@@H](/C=C/c3ccccc3)N3C(=O)CN(Cc4ccccn4)C(=O)[C@@]3(C)[C@H]2C1=O
    x, 3.4, -1, 2.1, 1.9, 2, i
CCn1c(SCC(=O)Nc2cc(C(C)(C)C)nn2-c2ccccc2)nnc1-c1cccs1
    0.7, 0.1, -11, 1.8, 3.5, -4, i
CCOc1ncccc1C(=O)Oc1ccc2c(c1)OCO2
    0.7, 1.4, -4, -2.1, 4.3, -15, x
CC(=O)Nc1ccccc1C
    x, 0.8, 5, -14, x, 21, i
CC1CCCCN1C(=O)COC(=O)C1CCN(S(=O)(=O)c2ccc3c(c2)OCCO3)CC1 (centres undefined)
    0.7, -0.7, 9, 2.2, -2.5, 0, i
O=C1OCCC1Sc1nnnn1-c1ccc(Cl)cc1 (centres undefined)
    0.72, 1.9, 1, 1.9, 7.7, 17, i
O=C(NN1C(=O)/C(=C/c2ccc(O)c(O)c2)SC1=S)c1ccccc1
    x, 33, -39, 0.9, x, 99*, x
CCN(CC)C(=O)c1sc(NC(=O)c2ccco2)c(C#N)c1C
    0.7, 6.0, -6, 1.1, 10, 10, x
COc1ccccc1CNC(=O)CC12CC3CC(CC(Br)(C3)C1)C2
    0.7, -0.1, 15, 10, -2.0, 0, i
Cc1ccccc1C(=O)Nc1ccc(S(=O)(=O)N2CC(C)OC(C)C2)cc1 (centres undefined)
    0.7, 1.1, 13, -6.3, 1.1, -1, i
Cc1ccc(S(=O)(=O)N2[C@@H](c3ccccc3)C(C(=O)O)=CC[C@H]2c2cccc(C)c2)cc1
    x, 3.3, -3, -3.7, 6.3, 1, i
Cc1noc(C)c1CSc1nc2ccccc2c(=O)n1-c1ccc(F)cc1F
    0.75, -1.9, 6, -3.2, 4.5, -5, x
O=C(Nc1cccc2ncccc12)c1cc([N+](=O)[O-])ccc1Cl
    0.65, 0.9, -1, 1.7, 2.1, x, i

More compounds
Each structure is followed by: E coli growth, HNF4A DNA FP, B2AR ag, LANA-H2B inh, UCH37 inh, ALR inh, FGF22 binding
Cc1cccc(C)c1NC(=O)Cn1c(=O)n(CCCC(=O)NCc2ccco2)c(=O)c2sccc21
    0.74, 1.7, -3, -3.5, -1.1, 2, x
Cc1c(NC(=O)c2cccc(NC(=O)Cc3ccccc3F)c2)c(=O)n(-c2ccccc2)n1C
    0.68, -1.4, -4, 6.4, 0.7, 4, i
CC[C@]12c3[nH]c4cc(CCC(=O)N(C)C)ccc4c3CCN1C(=O)[C@@H](CC(=O)NC/C=C(\C)CCC=C(C)C)C[C@@H]2C(=O)N1CCN(C(=O)C2CC2)CC1
    0.7, -0.3, 1, x, 1.9, x, i
COc1cc(/C=N/NC(=O)CN(CCc2ccccc2)S(=O)(=O)c2ccc(NC(C)=O)cc2)cc(OC)c1OC
    x, 1.1, 5, 2.1, x, 0, x
COc1ccc(C(=O)NC(C)c2ccncc2)cc1S(=O)(=O)N(C)Cc1ccccc1 (centres undefined)
    0.68, -1.4, 0, -2.8, -1.6, x, i
O=C(c1ccc(Cl)s1)N(Cc1nnc(-c2ccccc2Cl)o1)C1CC1
    0.67, 4.9, -6, -0.6, 0.3, -3, i
O=C(c1ccc(-c2ccc(Cl)cc2)o1)N1CCN(c2ccc([N+](=O)[O-])cc2Cl)CC1
    0.76, -3.9, 0, 1.5, 0.3, 7, i
N#Cc1cccc(C#N)c1Oc1ccc(S(=O)(=O)Nc2ccccc2)cc1
    0.66, 2.0, 0, 1.7, 3.9, 3, i
O=[N+]([O-])c1cccnc1Oc1ccc(OCc2ccccc2)cc1
    0.67, 1.7, 4, 0.7, 2.1, -6, i
CCOc1ccccc1CNC(=O)CCc1cn(C)c2ccccc12
    0.66, 1.0, -2, -2.9, 3.8, -10, i
CCN(CCCNC(=O)c1c(C)cc(=O)oc1C)c1cccc(C)c1
    0.72, -0.5, 3, -0.8, 13, 100*, x
CCOC(=O)Cn1c(C(C)=O)nc2ccccc21
    0.69, -3.3, 4, 0.4, -5.7, -2, i
O=C(CCN1C(=O)C2CCCCC2C1=O)Nc1cc([N+](=O)[O-])ccc1Cl (centres undefined)
    0.63, -3.9, -1, -6.5, 3.0, -7, i
Cc1ccc(NC(=S)N(CCN(C)C)Cc2cccs2)cc1C
    0.62, -0.3, 14, -0.6, 4.0, x, i
COc1ccc(CC(=O)Oc2cc(C)ccc2C)cc1
    0.66, 2.7, -5, -1.0, -1.6, x, i
CC(C)C(NC(=O)c1ccccc1F)C(=O)NCc1ccccc1 (centres undefined)
    0.64, 0.4, 1, -1.2, -0.1, 2, i
Cc1sc2nc(SCCO)n(-c3ccccc3)c(=O)c2c1C
    0.71, 5.2, 2, 0.4, 1.6, 2, i
CC(Oc1ccc2c(-c3ccccc3)cc(=O)oc2c1)C(=O)NCC(O)c1ccccc1 (centres undefined)
    0.72, -0.7, -8, 0.3, 6.2, -23, i
Cc1ccc(NC(=O)CSc2nnc(-c3cc(C)[nH]n3)n2N)c(C)c1
    0.61, 0.9, -1, 2.8, 0.0, 1, i
CCCCCCNC(=O)c1cc(S(=O)(=O)N2CCc3ccccc32)ccc1F
    0.71, 5.8, -8, -6.8, 1.3, -8, i

Compound profiles, as listed above. Order of values: E coli growth	HNF4A DNA FP	B2AR ag	LANA-H2B inh	UCH37 inh	ALR inh	FGF22 binding
CCOc1ccccc1CNC(=O)CCc1cn(C)c2ccccc12 is entered as 0.66	1.0	-2	-2.9	3.8	-10	i
CCOC(=O)Cn1c(C(C)=O)nc2ccccc21 is entered as 0.69	-3.3	4	0.4	-5.7	-2	i
CCN(CCCNC(=O)c1c(C)cc(=O)oc1C)c1cccc(C)c1 is entered as 0.72	-0.5	3	-0.8	13	100*	x

Remaining list, next part
Each structure is followed by: E coli growth, HNF4A DNA FP, B2AR ag, LANA-H2B inh, UCH37 inh, ALR inh, FGF22 binding
COc1ccccc1NC(=O)CN(C)S(=O)(=O)c1cccc2cccnc12
    0.68, 4.1, -1, -13, 2.4, -2, i
COc1ccc(CNC(=O)C2CCN(S(=O)(=O)c3ccc4c(c3)C(C)(C)C(=O)N4C)CC2)cc1
    0.71, 3.0, 3, -1.7, 3.3, 1, i
Cn1c(=O)[nH]c(=O)c2[nH]c(N(Cc3ccccc3)Cc3ccccc3)nc21
    0.74, -0.5, 11, 2.7, 0.2, 12, x
O=C(NN1CCOCC1)c1ccc(Br)s1
    0.68, 0.4, 0, -1.5, 0.9, 12, i
COc1ccc(C(=O)N/N=C\c2coc3ccccc3c2=O)cc1
    x, 0.9, 0, 7.8, x, x, i
COCCNC(=O)CN1N=C(c2ccc(OC)cc2)CCC1=O
    0.66, 1.1, 12, -2.3, 4.5, -10, i
O=C(Nc1ccc(Cc2ccncc2)cc1)c1cccs1
    0.67, 0.1, 16, x, 2.9, 1, i
CCCCn1c(N)c(N(CCOC)C(=O)c2cccc(S(=O)(=O)N3CCCCC3)c2)c(=O)[nH]c1=O
    0.63, 0.1, 3, -1.6, -12, -6, x
NC(=O)NC(=O)COC(=O)c1ccc(OC(F)(F)F)cc1
    0.71, 2.4, -1, -0.4, 0.9, -6, i
C[C@H](CO)N1C[C@H](C)[C@@H](CN(C)Cc2ccc3c(c2)OCO3)Oc2ccc(NS(C)(=O)=O)cc2C1=O
    0.77, 0.7, 4, 1.1, 1.1, -4, i
CCC(C)C(NC(=O)c1ccccc1NC(=O)c1ccc(C)cc1)C(=O)O (centres undefined)
    0.71, 1.3, 13, -1.2, 4.8, 2, x
Cc1cc(N2CCCCC2)nc(-c2ccc(Br)cc2)n1
    0.64, -3.3, 2, -3.6, -5.8, -2, i
Cc1nccn1CC(=O)N/N=C/c1c[nH]c2ccccc12
    x, -0.5, -2, -2.5, x, -1, i
COc1cc(/C=C(\C#N)c2ccccn2)cc(OC)c1O
    0.66, 4.1, -1, -7.5, 8.5, 98*, i
CCCC(C)c1oc(=O)cc(O)c1C (centres undefined)
    0.69, 0.7, 11, x, 2.2, x, i
N#Cc1c(NCCCO)nc(-c2ccco2)c2c1CCCC2
    0.74, -2.1, 12, 1.0, -225, 2, x
CC1CCCCN1CCCNc1c(C=O)c(=O)[nH]c2ccccc12 (centres undefined)
    0.62, -3.6, -3, -5.6, -1.6, -9, i
N#CCCSc1ccccc1NC(=O)c1cc(=O)c2ccccc2o1
    0.7, 1.6, -1, 3.7, 2.1, 1, i
Cc1c(Cl)cccc1NC(=S)N1CCOCC1
    0.7, 0.6, 3, 5.7, -0.1, -16, i
COc1ccccc1NC(=O)c1ccccc1C(=O)N(C)Cc1ccccc1
    0.69, -1.7, 1, -2.0, 3.3, -3, i

Additional records:
Each structure is followed by: E coli growth, HNF4A DNA FP, B2AR ag, LANA-H2B inh, UCH37 inh, ALR inh, FGF22 binding
CCN(CC)S(=O)(=O)c1ccc(C(=O)NCC(=O)N/N=C/c2ccccc2OC)cc1
    x, 3.9, 2, -3.9, x, -6, i
C=CCOc1c(Cl)cc(CNc2nccs2)cc1OC
    0.73, 1.6, 13, 0.4, 1.7, 9, i
CCOC(=O)c1cc(-c2cccs2)[nH]n1
    0.6, 1.2, 2, 3.2, 4.2, 0, i
CC1CC(C)CN(C(=O)COC(=O)c2cc([N+](=O)[O-])ccc2N2CCOCC2)C1 (centres undefined)
    0.7, 0.6, x, 0.0, 5.2, 3, i
NC1=NC(c2ccccc2C(F)(F)F)N(c2ccc(F)c(Cl)c2)C(N)=N1 (centres undefined)
    0.67, 0.1, -2, 3.1, 2.3, -8, i
Cc1ccc(NC(=S)N(Cc2ccccc2)Cc2cccs2)c(C)c1
    0.72, 3.7, -1, -2.4, 0.3, x, i
Cc1ccc(NC(=O)COC(=O)c2cc(=O)c3cc(F)ccc3o2)cc1
    0.7, 5.2, 9, x, -3.7, x, i
CCC(C)Sc1ccc([C@@H]2[C@H]3C(=O)N(C)C(=O)[C@H]3[C@]3(C(=O)OC)CCCN23)cc1 (some centres undefined)
    x, -5.7, -1, 7.7, 0.6, -4, i
CCOC(=O)C(C(=O)OCC)C1CCS(=O)(=O)C1 (centres undefined)
    0.71, -2.6, 5, 3.1, 0.2, -5, x
CCCn1nnc(NC(=S)NC(=O)C(C)(C)C)n1
    0.72, 1.0, 2, 0.0, 3.9, x, i
O=C(CC12CC3CC(CC(C3)C1)C2)NCC(=O)OCc1cc(=O)oc2ccc3ccccc3c12
    0.63, 0.5, -13, 6.8, -26, 3, i
COc1cc(NC(=O)c2cc(C(C)C)on2)cc(OC)c1OC
    0.67, 4.8, -4, 2.7, 5.7, x, i
COc1ccc(CNC(=O)/C=C/c2ccc(S(=O)(=O)NCc3ccco3)cc2)cc1OC
    0.71, -1.6, -1, 0.6, -2.8, 2, x
COc1ccc(S(=O)(=O)N2CCCC(C(=O)NCc3ccncc3)C2)cc1Cl (centres undefined)
    0.7, -1.0, -6, 2.5, 4.4, -3, x
Cn1ncc(Oc2ccc([N+](=O)[O-])cc2)c(Cl)c1=O
    x, 6.9, -3, -5.8, x, -2, i
COc1ccc(S(=O)(=O)N2CCOCC2)cc1NC(=O)c1cccs1
    0.66, 4.7, -21, -0.6, 3.4, -5, i
